# Calb biofilm kill = mixture kills Candida albicans biofilm cells; inhibition, % at 7.6 µM; C. albicans biofilm persisters + clotrimazole, fluorescence viability; primary screen in compound mixtures of four per well; 0.02% of 120,000 active;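 active = inhibition above 30.3% in the primary screen of four-compound pools, then above 30% when the compound was retested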;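 also: compounds exposed to preformed 24 h biofilms for 48 h; the number belongs to the whole pool; some results filed as inactive read as strong as hits; inactives centre near 12; 0% = biofilm with clotrimazole alone and 100% = kill control; retested singly at about 60 µM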
#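 Assay system: C. albicans biofilms / Medium: RPMI/MOPS medium, pH 7.0 / Schedule: biofilm formation 24 h, compound exposure 48 h, 37 °C / Measured by: Alamar Blue fluorescence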
# Active calls of the source: *. An excerpt; the hit share may differ from the screen's.
SMILES,Calb biofilm kill
O=C(CCCCN1CCCCC1)c1ccc2c(c1)Cc1ccccc1-2,11
N=c1n(CC(=O)c2ccc([N+](=O)[O-])cc2)c2ccccc2n1Cc1ccccc1Cl,-10
CN1CCN(C(=O)c2cnn(-c3ccccc3)c2NC(=O)c2ccccc2)CC1,25
CCSc1nnc(NC(=O)NC2CCCCC2)s1,13
COCCOC(=O)c1c(C)oc2ccc(OC(=O)c3ccco3)cc12,18
COc1cccc(OCCNC(=O)Nc2cc(F)c(F)cc2Cl)c1,15
C[C@@H]1CC=C[C@H]2[C@H]1C(=O)N(Cc1ccccc1)[C@H]2c1ccc2ccccc2c1/C=C/c1ccccc1,24
CC(=O)c1cc2c(cc1N(C(=O)Cn1nnc3ccccc31)C(C(=O)NCCC(C)C)c1cccnc1)OCO2 (stereo not given),5
COc1ccc(C(=O)NNC(=O)CSc2nnc(C)n2C)cc1,23
OCC1(Cc2ccccc2C(F)(F)F)CCN(Cc2ccc3c(c2)CCO3)CC1,18
Nc1c(C(=O)Nc2ccccc2F)sc2nc(-c3cccnc3)ccc12,14
CCCOc1ccc(/C=N/NC(=O)CN(c2ccc(OCC)cc2)S(C)(=O)=O)cc1,22

# Grouped by structure: the entries above containing a Cl atom.
SMILES,Calb biofilm kill
N=c1n(CC(=O)c2ccc([N+](=O)[O-])cc2)c2ccccc2n1Cc1ccccc1Cl,-10
COc1cccc(OCCNC(=O)Nc2cc(F)c(F)cc2Cl)c1,15

# Additional entries follow:
SMILES,Calb biofilm kill
NC(=O)N1CCC2(CC1)NC(=O)N(c1ccccc1)N2,13
CCSc1nnc(NC(=O)CCc2ccc(OC)cc2)s1,18
CC1CCCN(CC(O)COc2ccc3c(c2)OCO3)C1 (stereo not given),29
Cc1ccc(C)c(C(=O)Nc2cc(C)nn2-c2nc(C)cc(C)n2)c1,12
Cc1nc2ncnn2c(C)c1Cc1ccc(Cl)cc1F,5
CN(C)S(=O)(=O)N1CCC(Oc2ccc(C(=O)NC3CCCCC3)cc2)CC1,13
Cc1ccc(-c2csc(NC(=O)CCCc3cccs3)n2)cc1,18
Nn1c(SCc2cc([N+](=O)[O-])cc3c2OCOC3)nnc1-c1cccnc1,0
O=C(NCCN1CCOCC1)c1cc(Sc2ccccc2Cl)nc2ccccc12,6
CC(=O)c1cccc(NC(=O)CSCc2ccc(Br)cc2)c1,4
CC(OC(=O)C1CSC2(c3ccc(F)cc3)CCC(=O)N12)C(=O)NC(N)=O (stereo not given),27
CCc1c(C(=O)N/N=C/c2cn[nH]c2-c2ccc(F)cc2)csc1C,13
CN(CC(=O)N1CCCC1)S(=O)(=O)c1ccc2ccccc2c1,-1
N#CCSc1nnc(SCC#N)s1,6
CCN1C(=O)N[C@@H](c2ccc(Br)cc2)C(C(=O)OC)=C1C,3
CC(/C=C/c1ccccc1)=N/NC(=O)c1nc2nc(C)cc(C)n2n1,18
COc1cccc(CN2CCN(C(=O)c3cc(-c4cccnc4)nc4ccc(C)cc34)CC2)c1,1
NNC(=O)c1cccnc1Oc1ccccc1,12
CCC(C)(C#CCN1CCCCC1)OC(C)=O (stereo not given),-15
CCN(CC)c1ccc(N=Cc2ccccc2[N+](=O)[O-])cc1,16
COCc1ccc(C(=O)N2CCc3c([nH]c4ccccc34)C2c2ccccn2)s1 (stereo not given),7
CCOC(=O)c1sc(NC(=O)CSc2nnc(C(C)C)n2C)nc1C,9
COC1=C(Nc2ccccc2OC)C(=O)c2ccccc2C1=O,7
COc1cccc(CC(=O)Nc2ccc3nc(C)sc3c2)c1,21

# Arranged by number of heavy atoms (lowest first): 12 of the compounds above
SMILES,Calb biofilm kill
NNC(=O)c1cccnc1Oc1ccccc1,12
CCSc1nnc(NC(=O)NC2CCCCC2)s1,13
Cc1nc2ncnn2c(C)c1Cc1ccc(Cl)cc1F,5
CCN(CC)c1ccc(N=Cc2ccccc2[N+](=O)[O-])cc1,16
COc1cccc(OCCNC(=O)Nc2cc(F)c(F)cc2Cl)c1,15
O=C(CCCCN1CCCCC1)c1ccc2c(c1)Cc1ccccc1-2,11
Nn1c(SCc2cc([N+](=O)[O-])cc3c2OCOC3)nnc1-c1cccnc1,0
CN(C)S(=O)(=O)N1CCC(Oc2ccc(C(=O)NC3CCCCC3)cc2)CC1,13
OCC1(Cc2ccccc2C(F)(F)F)CCN(Cc2ccc3c(c2)CCO3)CC1,18
N=c1n(CC(=O)c2ccc([N+](=O)[O-])cc2)c2ccccc2n1Cc1ccccc1Cl,-10
COc1cccc(CN2CCN(C(=O)c3cc(-c4cccnc4)nc4ccc(C)cc34)CC2)c1,1
C[C@@H]1CC=C[C@H]2[C@H]1C(=O)N(Cc1ccccc1)[C@H]2c1ccc2ccccc2c1/C=C/c1ccccc1,24

# The list continues:
SMILES,Calb biofilm kill
Cc1cc[n+](-c2[nH]c(=O)sc2/C=N/NC([S-])=Nc2ccccc2)cc1,6
CCOC(=O)C1CCN(c2ncnc3c2c(-c2ccccc2)cn3-c2ccc(C)cc2)CC1,10
C/C(=N/NC(=O)c1ccco1)c1cccc(NC(=O)c2ccc(C)s2)c1,-7
COc1ccc(/C=C/c2ccncc2)cc1OC,-4
CC(C)c1ccccc1NC(=O)COC(=O)Cc1c[nH]c2ccccc12,14
CNc1cc(CSc2ccc(Cl)cc2)nc(C)n1,9
O=C(/C=C/c1cccs1)N1CCN(c2ccc(O)cc2)CC1,22
O=C(NNc1cc(C(F)(F)F)nc2ccccc12)Nc1cccc(Cl)c1,14
Cc1ccnc(NC(c2ccccc2O)c2oc(CO)cc(=O)c2O)c1 (stereo not given),8
O=C1C(Cl)=C(Nc2ccc3cn[nH]c3c2)C(=O)c2ccccc21,13
CCOCC(=O)Nc1cc([N+](=O)[O-])ccc1C,-6
Nc1ccc(S(=O)(=O)c2ccc(N)c(N)c2)cc1,-3
O=C(CCCn1c(=O)[nH]c2ccccc2c1=O)NCCSCc1ccccc1,9
CCN1CCN(Cc2ccc(NC(=O)c3cc(NC(=O)c4ccno4)cc(OC)c3)cc2C(F)(F)F)CC1,18
Cc1ccc2c(c1)Sc1c(ccc3ccccc13)N2,13
O=C(N/N=C/c1ccc(Br)s1)c1cccc([N+](=O)[O-])c1,7
Cc1ccc(C(NC(=O)N2CCN(C)CC2)C(Cl)Cl)cc1F (stereo not given),14
CC(Oc1ccccc1Cl)C(=O)N1CCOCC1 (stereo not given),12
Cc1c(NC(=S)Nc2ccccc2)c(=O)n(-c2ccccc2)n1C,13
CCc1cc(C(=O)N=Nc2c(O)[nH]c3c(Br)cc(Br)cc23)c2ccccc2n1,23
CCN1CCN(C(c2ccc(F)cc2)c2nnnn2Cc2ccc3c(c2)OCO3)CC1 (stereo not given),12
O=[N+]([O-])c1ccc2ncnc(Nc3ccc4c(c3)OCCO4)c2c1,8
CC(=O)NCCCc1nc2ccccc2n1Cc1cc(C)ccc1C,11
COc1ccccc1CNC(=O)CN1CCC(n2cnc3cc(F)ccc32)CC1,2
Fc1ccc(NC(=S)Nc2cccc3cnccc23)cc1,-1
Cc1nn(C)c(C)c1CNC(=O)Nc1cccc(Cl)c1,11
COc1cccc(-c2nnc(-c3ccccc3[N+](=O)[O-])o2)c1,26
O=C(CN1CCSC1=NCc1ccccc1)c1ccc(Cl)cc1,21
C=CCc1cccc(/C=N/NC(=O)CCC(=O)Nc2ccc(C)cc2)c1O,14
O=C(Cn1cnc([N+](=O)[O-])n1)N/N=C/c1cccc(Cl)c1,19
O=c1nc(SCc2cccc(C(F)(F)F)c2)nc2ccccn12,10
CN(C)c1ccc(C(=S)NC2CCCCC2)cc1,3
CCC(C)(C)NC(=S)Nc1ccccc1C,5
COc1ccccc1C1CC(c2ccco2)=NN1c1ccccc1 (stereo not given),9
CCOC(=O)CCCNC(=O)COC(=O)[C@@H]1CCCN1S(=O)(=O)c1ccc(Cl)cc1,17
COc1ccc2nc(N/C(N)=N/C(=S)Nc3c(C)cccc3C)nc(C)c2c1,-7
COc1ccc(NC(=O)/C=C/c2ccc3c(c2)OCO3)cc1,6
N#Cc1ccc(OCC(=O)Nc2cc(S(=O)(=O)N3CCCCC3)ccc2N2CCCCC2)cc1,17
CN(C)c1ccc(/C=N/NC(=O)c2cc(-c3ccc4c(c3)OCO4)n[nH]2)cc1,19
O=C(Cc1ccccc1[N+](=O)[O-])Nc1ccccc1C(=O)N1CCCC1,25
CCCOc1ccc(OCCOCCNCc2ccccc2)cc1,16
C=CCOC(=O)C(=O)/C=C/c1ccc2c(c1)Cc1ccccc1-2,16
CCOc1c(C(N)=O)cc([N+](=O)[O-])cc1[N+](=O)[O-],7
CSc1ccccc1C(=O)NCc1cccnc1,14
CCC1=C(OC(=O)N(CC)CC)N2C(=O)OC(=NCCc3c[nH]c4ccccc34)[C@]2(Cc2ccccc2)[C@H]2C1=CC[C@H]1C(=O)NC(=O)[C@H]12,3
CSc1ccccc1NC(=O)CN(C)Cc1ccc(Br)cc1,10
COc1ccccc1Nc1nc(N)nc(CSc2nccn2C)n1,-7
Cc1ccc2nc(-c3ccccc3)c(-c3ccccc3)nc2c1,16
COc1ccc(C(C)NC(=O)c2cccc([N+](=O)[O-])c2)cc1OC (stereo not given),6
Cc1ccc(C(c2sc3nc(C)nn3c2O)N2CCN(C(=O)c3ccco3)CC2)cc1 (stereo not given),-7
COc1ccc(CN2C(=S)NC(C)(C)CC2(C)O)cc1 (stereo not given),11
CCN1C(=O)/C(=C/C2=Cc3ccccc3OC2C)SC1=S (stereo not given),15
Cc1cc(C)cc(NC(=S)Nc2ccccn2)c1,7
COCCCn1c(SCC(=O)Nc2nc3ccccc3s2)nnc1-c1ccoc1C,13
Fc1ccc(CSc2nncn2NCc2ccccc2)cc1,12
COc1cccc(-c2nnc(NC(=O)c3ccc4ncsc4c3)o2)c1,12
Cc1ccc(NC(=O)/C=C/c2ccc3c(c2)OCO3)nc1,5
CCc1ccc(NC(=O)C(C)OC(=O)c2ccc(NS(=O)(=O)c3ccc(C)c([N+](=O)[O-])c3)cc2)cc1 (stereo not given),8
COc1ccc(/C=C/C(=O)Nc2ccc3c(c2)CCC3)cc1OC,7
Cc1cc(C(=O)N/N=C/c2ccc(N3CCOCC3)cc2)c(C)o1,-8
# (more compounds)
SMILES,Calb biofilm kill
CC(C)(C)c1ccc(C(=O)N2CCCC2)s1,17
COc1ccc(/C=C/C(=O)c2cc(Br)ccc2OC(=O)c2ccco2)cc1OC,10
O=C(CSc1nnc(-c2ccncc2)o1)c1cccc([N+](=O)[O-])c1,-8
O=C(CSc1nnc(-c2ccc(S(=O)(=O)N3CCCC3)cc2)o1)NCC1CCCO1 (stereo not given),23
CCOC(=O)c1c(C)[nH]c(C)c1C(=O)CSc1nc2ccccc2c(=O)n1-c1ccc(Cl)cc1,13
Cc1ccc2nc(SCC(=O)Nc3c(F)cccc3F)[nH]c2c1,21
CCCCC(=O)NC(c1ccccc1OC)c1ccc2cccnc2c1O (stereo not given),18
Cc1ccc(SCC(=O)Nc2ccc(F)cc2[N+](=O)[O-])cc1C,9
S=C1NCN(C2CCCCC2)CN1Cc1ccccc1,14
CSc1nnc([C@@H]2CCCN2C(=O)OC(C)(C)C)o1,52
Cc1ccc(OCC(=O)N(Cc2ccccc2)C(C)C)c([N+](=O)[O-])n1,19
COc1ccc(CCNC(=S)NC(=O)c2ccc(Br)cc2)cc1OC,-1
CC1=C/C(=N\NC(=O)c2ccc(O)cc2)CC1,18
COc1ccc(CC(=O)O/N=C(\N)Cc2ccc([N+](=O)[O-])cc2)cc1,15
O=C(N/N=C/c1c(Cl)cccc1Cl)c1n[nH]c2c1CCCC2,-3
CN1C(=O)C(O)(CC(=O)/C=C/C=C/c2ccccc2)c2ccccc21 (stereo not given),-9
O=C(O)c1ccc(-c2cccc([N+](=O)[O-])c2)o1,19
CNC(=S)NCC(O)c1ccc([N+](=O)[O-])cc1 (stereo not given),31
O=C(O)c1cc(-c2ccc3c(c2)OCO3)nc2ccc(Br)cc12,11
Cc1[nH]nc(SCC(=O)NC2CCCCC2)c1[N+](=O)[O-],11
O=C1CN(C(=O)c2cc([N+](=O)[O-])ccc2Cl)C(c2ccccc2)c2cc(F)ccc2N1 (stereo not given),11
O=C1OCc2cc(NC(=O)C3COc4ccccc4O3)ccc21 (stereo not given),12
COC(=O)Nc1nncs1,2
CC(OC(=O)c1ccc2c(=O)n3c(nc2c1)CCC3)C(N)=O (stereo not given),15
O=C(CN1CCOCC1)n1c2c(c3ccccc31)CCCC2,19
Cc1ccc(OCCCC(=O)NCc2ccco2)c(C)c1,9
Cc1ccc(S(=O)(=O)N(C)CC(=O)OCC(=O)c2c(N)n(C)c(=O)n(C)c2=O)cc1,16
COC(=O)c1cc(Sc2c(Cl)cccc2Cl)ccn1,14
C=CC12C=CC=CN1C(C(=O)OC)=C(C(=O)OC)C(C(=O)OC)=C2C(=O)OC (stereo not given),15
NS(=O)(=O)c1cccc(NC(=O)c2cccs2)c1,24
O=C(Cn1cc([N+](=O)[O-])cn1)NCc1cc2ccccc2[nH]1,4
CC(Nc1ccc(N2CCOCC2)cc1)C(=O)N1c2ccccc2CC1C (stereo not given),7
COC(=O)CN1C(=O)N/C(=C/c2ccccc2OC)C1=O,7
C/C(CC(=O)Nc1cccc2c1CCCC2)=N\NC=O,28
Cc1nc(-n2nnc(CO)c2CO)nc2c1CCC2,6
CC(Nc1ccc2c(c1)OCCO2)C(=O)N1c2ccccc2CC1C (stereo not given),17
CC1CN(C(=O)c2c(Br)cnn2C)CC(C)O1 (stereo not given),13
Nc1ncnc2c1cnn2C1CCCCC1,14
Cc1ccc(NC(=S)/C(=C(\[O-])c2ccc(F)cc2)[n+]2ccccc2)cc1,1
CN(C)Cc1c(O)ccc2c(-c3ccccc3)cc(=O)oc12,13
CCOC(=O)c1c(NC(=O)c2ccc(C)cc2)sc2c1CC(C)(C)NC2(C)C,17
Cc1cc(-c2ccc(/C=N/n3cnnc3)o2)ccc1Cl,12
O=C(/C=C/c1ccc(Cl)c(Cl)c1)NC1=NCCS1,19
COc1ccc(C(=O)Nc2ccccc2-c2nnn(CC(=O)N3CCOCC3)n2)cc1,8
